T cruzi inh: blocks replication of Trypanosoma cruzi. T. cruzi beta-gal in NIH3T3, luminescence, 90 h. inhibition, % (no concentration beside the values). 300,000 tested, 1.4% active. AID 1885;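 active = mean inhibition across valid replicates above about 55%, limit read from the data; inconclusive = mean below that limit but half or more replicates reach it; inactive = mean below it, under half of replicates reach it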;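 also: signal also drops with host cell toxicity which is not excluded here; 0% = plate median of DMSO wells and 100% = zero luminescence signal; higher percent means less beta-gal luminescence so fewer parasites; stock transfer was 50 nL into about 50 µL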
Calb FLC: affects C. albicans growth with fluconazole; 300,000 tested, 0.57% active; C. albicans CaCi-2 (fluconazole-resistant clinical isolate) + fluconazole, Alamar Blue growth, 48 h; growth inhibition, % (test concentration not listed);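 active = most replicates above 75%; inconclusive = exactly half above 75%; inactive = most below 75%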;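 also: all wells also contain fluconazole at 8 µg/ml as a sub-toxic cotreatment; 0% = median of DMSO wells and 100% = median of geldanamycin control wells; wells of about 8 µL received 7.5 nL stock; the first replicate is given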
LANA-H2B inh: blocks KSHV LANA binding to histone H2A/H2B; Q9QR71; 320,000 tested, 0.6% active; cell-free LANA-H2A/H2B peptide, fluorescence polarization; inhibition, % (no concentration beside the values); in the data active = inhibition mostly above about 10%, no sharp cut-off; inactive = mostly below about 6.7%;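 also: stock transfer was 7.5 nL into about 10 µL; 0% = median of vehicle wells and 100% = median of positive control wells; one replicate is shown; the record names a cut of 25% in any replicate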
B2AR ag: human beta-2 adrenergic receptor agonism by FAP; response, % (test concentration not listed); Am2.2-beta2AR cells, FAP receptor internalization, flow cytometry; reference of the scale not given here; 340,000 tested, 0.43% active;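 active = response above a set limit, near 3 SD of response in nonfluorescent compounds, cut at about 42% in these data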;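 also: stock transfer was 100 nL into about 11 µL; a reference agonist was the positive control; negative values mostly stem from fluorescent compounds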
Target sequence (P07550 whole entry, looked up): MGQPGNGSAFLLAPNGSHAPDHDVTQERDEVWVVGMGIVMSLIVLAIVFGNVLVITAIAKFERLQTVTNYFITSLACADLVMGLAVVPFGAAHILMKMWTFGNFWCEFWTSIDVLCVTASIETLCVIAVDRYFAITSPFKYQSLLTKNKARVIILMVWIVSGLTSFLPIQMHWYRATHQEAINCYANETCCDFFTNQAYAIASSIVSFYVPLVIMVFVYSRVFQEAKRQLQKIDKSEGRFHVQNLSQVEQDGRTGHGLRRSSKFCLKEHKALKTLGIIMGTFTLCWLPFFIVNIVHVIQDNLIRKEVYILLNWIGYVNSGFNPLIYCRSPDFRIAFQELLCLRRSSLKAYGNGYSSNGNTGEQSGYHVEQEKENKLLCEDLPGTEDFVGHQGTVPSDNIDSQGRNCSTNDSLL
Beta cell apopt: beta cell apoptosis inhibition; INS-1E cytokine-induced death, ATP luminescence, 48 h; percent of positive-control rescue, neutral wells zero; protection from apoptosis, % (test concentration not listed); 300,000 tested, 0.8% active;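 active = all replicates at 75% or more, or half of them and the mean; inconclusive = half reach 75% but not the mean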;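 also: 0% = cytokine-treated negative control wells and 100% = positive control rescue; higher means more ATP so stronger rescue from cytokine killing; wells of about 40 µL received 100 nL stock; the first replicate is given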
A1 inh: inhibitors of the anti-apoptotic protein A1, read as caspase activation | 330,000 tested, 0.066% active | MEF A1-2A-BIM cells, Caspase-Glo 3/7 luminescence, 3 h; percent of clofoctol response, vehicle zero | caspase activation, % (no concentration beside the values);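 active = over half of replicate activation scores above 10%, or exactly half above 10 with the replicate mean above 10; inconclusive = replicate mean below 10 yet half the replicates above 10; inactive = over half of replicates below 10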;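 also: wells of about 30 µL received 50 nL stock; many hits fall short of the cut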
rRNA inh HTS: selective bacterial rRNA inhibition in E. coli | 350,000 tested, 1.6% active | AID 720706 | E. coli WT GFP vs humanized-ribosome RFP mutants, fluorescence, 24 h; stronger effect = lower value; DMSO median 0, no signal -100 | GFP signal change (wild-type ribosome), % (concentration not given with the values);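 active = significant combined selectivity score with lowered wild-type GFP, culture density cut under 30%, mutant RFP and density less affected; inactive = any of these conditions unmet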; also: one replicate is shown; some compounds called inactive have numbers as strong as hits
ALR inh: inhibitors of human sulfhydryl oxidase ALR; P55789; purified ALR, DTT oxidation, H2O2 HRP-luminol luminescence; inhibition, % (test concentration not listed); 290,000 tested, 3.8% active; AID 485317;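 active = mean and each replicate at 75% or more; inconclusive = only one of the two met; inactive = neither met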;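 also: stock transfer was 7.5 nL into about 7.5 µL; 0% = neutral wells and 100% = wells with inactivated enzyme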
Target sequence (P55789 whole entry, looked up): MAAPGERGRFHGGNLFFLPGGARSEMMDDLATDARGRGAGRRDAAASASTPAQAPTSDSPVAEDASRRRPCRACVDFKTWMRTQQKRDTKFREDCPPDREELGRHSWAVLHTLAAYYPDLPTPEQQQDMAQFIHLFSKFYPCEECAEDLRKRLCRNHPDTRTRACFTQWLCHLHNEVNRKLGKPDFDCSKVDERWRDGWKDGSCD
rRNA inh HTS OD600: also measured in rRNA inh HTS; calls as there; OD600 change, %; measured here: OD600 growth;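 optical density of the mix in the first replicate; 0 = DMSO median and -100 = no signal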
rRNA inh HTS RFP: further read-out of rRNA inh HTS, marked with its call; RFP signal change, %; measured here: RFP humanized mutant strains;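 first replicate; 0 = DMSO median and -100 = no signal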
The depositor's hits bear a star; ? = inconclusive; / = not tested or not shown. An excerpt; rates above refer to the full screens.

structure	ALR inh	rRNA inh HTS OD600	LANA-H2B inh	Beta cell apopt	rRNA inh HTS	Calb FLC	A1 inh	B2AR ag	rRNA inh HTS RFP	T cruzi inh
CNC(=O)/C(C#N)=C1\SC(Cc2ccc(F)cc2)C(=O)N1c1ccccc1C (configuration not stated)	/	-17	-1.8	2	-10	12	0.2	-1	-1.5	-13
Cc1ccc(C)c(CN2CCSCC2)c1	-3	10	-1.4	-1	18	-7	-0.5	-3	-3.4	-11
O=c1c2c3c(sc2nc2n1N=C(c1cccs1)CS2)CCCC3	0	/	7.3	0	/	6	-3.5	2	/	12
CC(C)c1nc(CN2CCCCC2)cc(=O)[nH]1	-4	-5	-1.1	-2	11	?	0.1	-1	2.6	9
CCN(CC)c1ccc(NC(=O)CSc2ccsc2[N+](=O)[O-])c(C)c1	93*	/	-2.2	14	/	-4	0.5	4	/	21
CCCOP(=O)(c1ccc(N(C)C)cc1)C(Nc1ccccc1)c1ccc(C)cc1 (configuration not stated)	13	6	-1.6	-6	7	3	0.2	6	-1.0	/
COc1ccc(N/N=C2/CCCCC2=O)cc1	99*	/	9.9	/	/	-22	-0.1	6	/	10
COC(=O)N/N=C/C1=CCC2CC1C2(C)C (configuration not stated)	-5	0	-1.6	-6	16	6	0.1	-11	-1.6	-9
Oc1ccccc1/C=N/N1CCCCC1	-38	14	-2.2	-9	4	-5	0.0	-1	-1.0	-23
COc1cccc(CC(=O)OCC(=O)NNC(=O)c2ccc(Br)cc2)c1	0	7	-1.2	-2	-4	/	0.1	5	3.8	/
CCOc1ccccc1N(C)S(=O)(=O)c1ccc2c(c1)N(C(C)=O)CCO2	47	-4	-8.0	-8	-3	1	-0.3	-7	0.2	6
O=C(Nc1cccc(C(F)(F)F)c1)n1cc(-c2ccccn2)c(N2CCOCC2)n1	-7	-76	1.4	4	-48	-6	0.5	-3	-9.6	16
Cc1cc2c(cc1S(=O)(=O)N1CCCCC1)OCC(=O)N2	-4	8	4.0	4	1	-21	0.0	2	-1.5	1
CN(C)C(=O)N1CCCC(C(=O)NCc2ccc(F)cc2Cl)C1 (configuration not stated)	-1	/	2.6	2	/	0	0.7	8	/	-2
O=C(O)CSCC(=O)Nc1ccc(C(F)(F)F)cc1	-6	11	-2.9	10	10	11	-0.9	-1	3.4	8
Cc1cc(NC(=O)CN2C(=O)CCSc3ccccc32)no1	/	9	9.8	-1	11	0	0.6	-6	1.6	-1
Cc1c(-c2ccncc2)oc2ccc(Br)cc2c1=O	6	/	5.1	-4	/	-6	-0.6	/	/	3
NC(=S)NC1CCS(=O)(=O)C1 (configuration not stated)	-11	10	-2.0	2	14	-29	1.0	9	-8.3	-21
CC(C)CC(=O)Nc1ccc(Nc2ccccc2)cc1	99*	/	4.6	1	/	-32	0.8	7	/	10
CCNc1nc(NC(C)C)nc(Nn2cnnc2)n1	-10	/	-2.1	-5	/	-2	0.9	-11	/	-1
O=C(CCc1ccccc1)Nc1ccccc1C(=O)N1CCOCC1	/	3	7.0	-5	9	-6	0.1	-2	4.2	/
CC1=CN2C(=NC(=O)CC2(C)C(=O)N(CC(=O)NC2CCCC2)Cc2ccccc2)C=C1 (configuration not stated)	-2	11	1.3	-14	9	-5	0.1	2	-1.3	1
O=C(Cn1cnc2ccccc2c1=O)NC1CCCc2ccccc21 (configuration not stated)	-15	/	-2.5	-9	/	-7	-1.6	1	/	19
COC(=O)c1ccc2[nH]c(C3(O)CCCCC3)c(C)c2c1	-1	-25	0.1	-3	-11	/	0.3	-1	-12	/
Cc1ccc(S(=O)(=O)NCCc2ccc(S(N)(=O)=O)cc2)cc1	-5	/	0.3	-8	/	13	-0.5	-1	/	-14
COc1ccc(NC(=O)CC2Oc3ccccc3NC2=O)c(OC)c1 (configuration not stated)	-2	10	-3.9	-4	8	-6	1.8	4	0.3	6
CCCc1cc(=O)[nH]c(SCC(=O)N2CCN(c3ccccc3)CC2)n1	33	-5	-1.8	-1	5	-3	-0.9	0	-0.5	0
O=C(NC(=S)N1CCN(c2ccccn2)CC1)c1ccccc1	2	/	4.2	-6	/	3	1.1	5	/	-13
COc1cc2c(cc1OC)-c1c(OC)c(OC)cc3ccnc(c13)C2=O	/	-24	1.9	112*	-22	22	1.9	15	-13	21
Cc1ccc(C(=O)c2ncc[nH]2)cc1	/	-5	-3.0	-1	-5	-2	-0.8	-2	-6.1	-16

structure	ALR inh	rRNA inh HTS OD600	LANA-H2B inh	Beta cell apopt	rRNA inh HTS	Calb FLC	A1 inh	B2AR ag	rRNA inh HTS RFP	T cruzi inh
Cn1ccnc1SCC(=O)Nc1ccccc1	99*	/	2.2	-6	/	/	-1.5	-1	/	-18
CC(OC(=O)c1cc(S(=O)(=O)N2CCOCC2)ccc1F)C(=O)NCC1CCCCC1 (configuration not stated)	-12	/	3.0	-7	/	/	2.6	-5	/	/
COCCN1Cc2cccc(C(=O)NC(C)c3cccs3)c2C1=O (configuration not stated)	/	/	-1.3	-5	/	13	-0.1	-2	/	5
COc1ccc(-c2ccc3oc(-c4ccc(OC)cc4)c(-c4ccc(OC)cc4)c3c2)cc1	-11	5	0.1	2	2	-5	0.5	0	-1.5	-4
CCOC(=O)c1nn(-c2ccccc2C)c(=O)cc1OCC(=O)Nc1cccc(OC)c1	/	10	/	-2	2	-11	0.2	8	-3.8	-3
CCOC(=O)C1CCN(C(=O)CCNS(=O)(=O)c2ccc3c(c2)CCN3C(=O)CC)CC1	0	-10	-6.7	-4	-3	2	-0.6	-5	-3.5	-15
CCC(C)NC(=O)CNC(=O)c1nn(-c2ccc(OC)cc2OC)c(=O)c2ccccc12 (configuration not stated)	0	19	0.8	-4	2	17	0.3	-4	-0.1	-9
CCN1CCN(S(=O)(=O)Cc2ccccc2)CC1	-3	/	4.1	-4	/	11	-0.5	-3	/	-1
Cc1ccc(NC(=O)C(=O)NCC2CCN(C(=O)c3cccc([N+](=O)[O-])c3)CC2)cc1	-4	14	-6.0	0	12	18	2.1	-3	0.7	22
CCOc1cc(C(=S)N2CCCCC2)ccc1OS(=O)(=O)c1ccc(Br)cc1	-6	/	2.8	29	/	-5	0.4	3	/	52
Cn1c(=O)c2c(nc(Br)n2CC(=O)c2cccs2)n(C)c1=O	0	/	-7.2	-3	/	21	0.4	-12	/	-10
CCn1c(=O)c(=O)n(CC)c2cc(S(=O)(=O)Nc3ccc(C)cc3)ccc21	12	-10	0.6	0	-13	-5	1.3	-4	-3.1	-19
O=C(O)C1C2C=CC3(CN(C/C=C/c4ccccc4)C(=O)C13)O2 (configuration not stated)	-14	6	0.5	1	-2	-1	/	-2	-1.0	-21
COC(=O)CCC(NS(=O)(=O)OCC(Cl)(Cl)Cl)c1ccccc1 (configuration not stated)	-11	-1	8.8	-5	-7	-8	0.8	1	-1.1	-5
CCN(CC)c1ccc(C2NC(=O)NC(C)=C2C(=O)Nc2ccccc2)cc1 (configuration not stated)	99*	-2	-4.1	4	1	20	-0.1	-28	7.4	-12
Cc1ccc(CNC(=O)C2CCN(S(=O)(=O)c3ccc4c(c3)CC(C)N4C(=O)C3CC3)CC2)cc1 (configuration not stated)	-1	-22*	1.6	/	-28*	8	0.0	-27	2.6*	-13
CCOC(=O)[C@H]1[C@H]2COc3ccc(Br)cc3[C@H]2N2C(=O)CNC(=O)[C@@]12C	1	-13	-5.5	0	-5	/	-0.7	-1	0.3	/
COc1cccc(NC(=O)CN(C)C(=O)c2ccccc2OCC(=O)Nc2cccc(C(F)(F)F)c2)c1	-3	-1	1.4	3	0	-3	0.1	4	-0.8	46
Cc1cc(C)n(CC(=O)N/N=C/c2ccccn2)n1	3	/	6.6	-2	/	-14	-0.1	-1	/	-22
Nc1cc(N)nc(SCc2cc([N+](=O)[O-])cc3c2OCOC3)n1	-7	10	-7.8	-13	11	5	-0.1	55*	-0.1	-9
CC(C)Cc1ccc(/C=C/C(=O)N2CCOCC2)cc1	-2	-19	2.6	-1	-22	10	-0.9	3	8.6	-2
CC(=O)N1CCN(c2ncnc3sc(-c4ccccc4)cc23)CC1	/	-27	-0.9	-4	-26	25	?	-18	-8.9	4
CC(C)c1cc(-c2cc(-c3ccc(Cl)cc3)on2)nc(NC2CCCC2)n1	-7	-6	0.8	8	-2	4	-0.8	12	-2.9	25
Cc1ccc(C(=O)Nc2nc3nc(-c4ccccc4)cc(=O)n3[nH]2)cc1	92*	13	-7.2	-2	4	-10	1.1	-15	18	-5
O=C(CSc1n[nH]c(=O)[nH]c1=O)N1CCCCCC1	-26	0	2.7	-1	7	-2	-0.5	-4	3.2	-1
CC(C)N1CC2=C(OC(N)=C(C#N)C2c2cccnc2)/C(=C/c2cccnc2)C1 (configuration not stated)	-16	/	0.4	-5	/	-1	0.6	5	/	-6
NC(=S)N/N=C/c1cccc(Br)c1	-2	3	1.7	-12	-12	15	0.0	7	-0.5	40
N#Cc1nc(-c2ccccc2F)oc1NCc1cccc2c1OCO2	9	-19*	2.5	-11	-29*	-3	-0.6	0	3.6*	13
O=C(O)CCC(=O)N(Cc1ccccc1)Cc1ccccc1	-2	2	4.2	-7	-2	3	1.0	7	-1.5	1
CC(=NNC(=O)c1ccc(NS(=O)(=O)c2cccs2)cc1)c1ccc(OCC(N)=O)cc1	12	/	-2.7	-4	/	/	0.8	-6	/	/
CC1(C)CC(=O)c2c(O)cc(OCC(=O)Nc3ccc(CCO)cc3)cc2O1	23	/	-0.3	-8	/	15	1.5	-6	/	9

Screening results from PubChem.
